Rango-impB inh: prevents formation of the Rango-importin beta complex; Q14974; Rango CFP/YFP FRET sensor + importin beta, 45 min; Potency, µM (titrated, usually from 92.2 µM), for inactives: at the highest dose inhibition of complex formation; 340,000 compounds, 0.031% hits; AID 540263; active = rising FRET ratio curve, often small or poorly fitted; inconclusive = mostly compound fluorescence or quenching in the first reads; inactive = flat curves in all reads;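 also: potency is read from the fitted curve at half-maximal effect; 0% = DMSO wells and 100% = buffer wells lacking importin beta; nearly all actives have a fitted effect of over 15% in size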
Target sequence (Q14974 whole entry, looked up): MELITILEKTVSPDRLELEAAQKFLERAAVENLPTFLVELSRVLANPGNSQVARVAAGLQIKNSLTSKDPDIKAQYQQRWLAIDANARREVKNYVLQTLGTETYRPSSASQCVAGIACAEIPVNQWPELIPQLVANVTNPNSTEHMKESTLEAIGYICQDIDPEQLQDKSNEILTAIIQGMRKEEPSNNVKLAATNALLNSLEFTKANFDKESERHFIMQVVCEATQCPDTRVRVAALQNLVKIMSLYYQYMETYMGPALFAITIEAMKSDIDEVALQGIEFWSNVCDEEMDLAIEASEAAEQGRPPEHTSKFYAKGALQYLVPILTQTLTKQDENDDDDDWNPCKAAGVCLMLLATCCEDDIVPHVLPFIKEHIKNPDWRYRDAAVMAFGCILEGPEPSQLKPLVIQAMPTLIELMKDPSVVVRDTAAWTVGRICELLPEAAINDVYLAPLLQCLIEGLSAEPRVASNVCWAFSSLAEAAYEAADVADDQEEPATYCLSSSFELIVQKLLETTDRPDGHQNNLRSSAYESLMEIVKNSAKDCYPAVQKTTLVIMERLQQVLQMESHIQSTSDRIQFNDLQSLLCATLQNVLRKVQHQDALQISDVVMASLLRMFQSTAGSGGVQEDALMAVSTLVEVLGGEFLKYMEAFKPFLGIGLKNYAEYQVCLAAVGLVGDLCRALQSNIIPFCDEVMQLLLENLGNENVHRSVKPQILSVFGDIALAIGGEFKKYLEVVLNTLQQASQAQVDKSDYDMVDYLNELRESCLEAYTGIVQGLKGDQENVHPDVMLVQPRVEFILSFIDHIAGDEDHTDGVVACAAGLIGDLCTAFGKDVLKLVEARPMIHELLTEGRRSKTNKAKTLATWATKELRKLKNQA
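FRET biosensor Rango (snurportin 1 IBB between N-terminal EYFP and C-terminal Cerulean), 50 nM in PBS/1 mM DTT/0.02% Tween-20/0.1% BSA, preincubated 5 min RT with compound; 0.125 microM importin beta added, 45 min RT, CFP/YFP FRET ratio read.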
GLA inh pH 4.5: inhibitors of human alpha-galactosidase A at pH 4.5 | P06280 | purified enzyme, 4-MU-alpha-Gal fluorescence, pH 4.5 | activity change, negative = inhibition, % at 105 µM | 230,000 tested, under 10 active | AID 1467; inconclusive = small, poorly fitted or top-dose-only inhibition, or a rising curve; inactive = flat fitted curve, though single readings scatter; no compound was filed as active;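 also: 0% = full activity with enzyme and -100% = basal without enzyme; dose as in the result columns while the protocol names 77 µM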
Rango release inh: prevents RanGTP from dissociating the Rango-importin beta complex. O95149+P62826. Potency, µM (series often up to 46.1 µM), inactives show at the highest dose activity change, negative = inhibition. Biochemical FRET Rango-importin beta, RanGTP-induced dissociation. 340,000 compounds, 0.071% hits; active means falling FRET ratio curve, often poorly fitted, with flat reads before Ran was added; inconclusive means other falling curves, or compound fluorescence or quenching; inactive means flat or rising ratio curve;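 also: potency is read from the fitted curve at half-maximal effect; % of control where 0% means no effect; nearly all actives have a fitted effect of over 45% in size; -100% = wells without RanGTP and RCC1; the record marks most hits as doubtful in a second field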
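Recombinant Rango FRET biosensor (EYFP–snurportin 1 IBB–cerulean CFP10) at 0.1 uM premixed with 0.25 uM importin beta in PBS, 1 mM DTT, 0.02% Tween-20, 0.1% BSA. Compound added 5 min; RanGTP-RCC1 (0.6 uM Ran, 2 mM GTP, 0.2 uM RCC1) then triggers release, read at 45 min.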
miR-21 FLuc: miR-21 reporter, rising signal; HeLa miR-21 FLuc reporter, luciferase, 48 h; Potency, µM (highest dose often 38.3 µM), inactives show at the top dose reporter change, positive = more light; 340,000 tested, under 10 active; active = well fitted rising curve with a large enough effect; inconclusive = small, poorly fitted or top-dose-only effect; inactive = no such curve, though single readings can be large or run the other way;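 also: % of control where 0% means no effect; miR-21 action dims this reporter so a rising signal means less miR-21 action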
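HeLa cells stably expressing CMV-driven firefly luciferase with a downstream miR-21 binding sequence, endogenously expressing miR-21, were treated with titrations (up to about 40uM final) for 48 hours at 37 degree Celsius. Luciferase luminescence was read after lysis.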
An asterisk follows results filed as active; ? = inconclusive; nt = not tested or not shown; & = joins results of further samples. The list is partial, so the mix of outcomes need not match the whole.

miR-21 FLuc | Rango release inh | SMILES | Rango-impB inh | GLA inh pH 4.5
-4.6% | -3.4% | CC(NC(=O)/C=C/c1ccccc1)c1ccccc1 (stereo not given) | -2.4% | 4.1
-9.2% | 2.8% | O=C(CCC(=O)N1CCOCC1)Nc1ccc(Cl)c(Cl)c1 | 0.0% | nt
-0.8% | -4.1% | CSc1nccc(N2CCN(c3ccc(F)cc3)CC2)n1 | -1.6% | -6.4
nt | -2.0% | O=C(NCC(=O)N1CCN(S(=O)(=O)c2ccccc2C(F)(F)F)CC1)c1sc2ccccc2c1Cl | 3.2% | nt
-4.4% | ? | CCOC(=O)N1CCN(c2ccc3nnnn3n2)CC1 | -1.5% | 0.4
-6.4% | -0.3% | CCOc1ccc(CC2S/C(=N/c3ccccn3)NC2=O)cc1 (stereo not given) | -0.9% | -5.1
0.1% | -12.3% | O=C(CCCn1c(SCC(=O)NC2CCCCC2)nc2ccccc2c1=O)NCC1CCCO1 (stereo not given) | 1.7% | 4.0
20.2% | 22.9% | O=C(NCc1cccnc1)c1cc(Sc2ccccc2Cl)nc2ccccc12 | 0.3% | -3.9

An excerpt from above in order of heavy-atom count, smallest number first.
miR-21 FLuc | Rango release inh | SMILES | Rango-impB inh | GLA inh pH 4.5
-4.6% | -3.4% | CC(NC(=O)/C=C/c1ccccc1)c1ccccc1 (stereo not given) | -2.4% | 4.1
-4.4% | ? | CCOC(=O)N1CCN(c2ccc3nnnn3n2)CC1 | -1.5% | 0.4
-6.4% | -0.3% | CCOc1ccc(CC2S/C(=N/c3ccccn3)NC2=O)cc1 (stereo not given) | -0.9% | -5.1
0.1% | -12.3% | O=C(CCCn1c(SCC(=O)NC2CCCCC2)nc2ccccc2c1=O)NCC1CCCO1 (stereo not given) | 1.7% | 4.0
nt | -2.0% | O=C(NCC(=O)N1CCN(S(=O)(=O)c2ccccc2C(F)(F)F)CC1)c1sc2ccccc2c1Cl | 3.2% | nt

Continuation.
miR-21 FLuc | Rango release inh | SMILES | Rango-impB inh | GLA inh pH 4.5
-1.6% | -1.5% | O=C(O)COc1ccccc1/C=N/NC(=O)CSc1nnc(SCc2ccc(Cl)cc2)s1 | -0.7% | -2.7
-18.4% | 21.2% | COc1ccc(-c2nnn(CC(=O)N(C3CCCC3)C(C)C(=O)NC3CCCC3)n2)cc1OC (stereo not given) | -0.8% | 4.0
-2.8% | -18.1% | C=CCOC(=O)C(=O)/C=C/c1csc2ccccc12 | ? | 0.9
-10.7% | -17.6% | Cc1cc(C(=O)CSC(C)c2nc3ccccc3c(=O)[nH]2)c(C)n1C (stereo not given) | 2.0% | 10.1
-13.1% | 21.6% | CC(=O)c1ccc(-n2c(-c3cc(-c4ccco4)[nH]n3)n[nH]c2=S)cc1 | 9.9% | -1.3
nt | 4.0% | CC1=CC2=NC(=O)C(c3ccccc3)C(=O)N2C=C1 (stereo not given) | -1.9% | nt
-2.5% | -12.8% | O=C(CCCC1=NS(=O)(=O)c2ccccc2N1)Nc1ccccc1 | -2.6% | nt
-57.2% | 28.3% | Cc1ccc(NC(=O)Nc2ccccc2)c(Br)c1 | 1.0% | 4.7
-6.7% | -8.1% | COc1ccc2nc(NC(=O)c3ccccc3-c3ccccc3C(=O)O)sc2c1 | -1.3% | 1.7
nt | 15.0% | Cc1nc2nc(SCc3ccccc3)nn2c(C)c1C | -0.8% | nt
nt | -13.2% | Cc1ccc(C2/C(=C(\O)c3c(C)nc4c(C)cccn34)C(=O)C(=O)N2CCN(C)C)o1 (stereo not given) | -4.2% | nt
-3.3% | ? | CC1CCCCN1C(=O)CCC(=O)Nc1nnc(C(F)(F)F)s1 (stereo not given) | ? | nt
-12.4% | 4.5% | CCC(Sc1nc2n[nH]c(C)c2c(=N)n1-c1cccc(Cl)c1)C(=O)NCCOC (stereo not given) | ? | -2.0
1.2% | 1.0% | CCSC1=C(C#N)C(c2cccs2)C(C(=O)OC)=C(C)N1 (stereo not given) | -2.7% | 1.2
nt | 39.1% | CCCCn1c(SCC(=O)Nc2ccc3c(c2)OCCO3)nnc1C(CC)N(C)C (stereo not given) | -1.1% | nt
-27.1% | 3.1% | COC(=O)C(Sc1nc(C)cc(C)c1C#N)c1ccccc1 (stereo not given) | 3.5% | -26.2
-0.3% | -10.9% | Cn1[nH]c(C(F)(F)F)c(C=NCc2ccc(Cl)cc2)c1=O | 2.8% | 10.6
-1.5% | 5.7% | CC(=O)NCCOc1nc(N2CCCCC2)nc(N2CCCCC2)n1 | 2.2% | -20.5
0.8% | -2.2% | Cn1nc(C2CC2)cc1NC(=O)CC(CC(=O)O)c1ccccc1 (stereo not given) | 0.9% | -14.4
-1.2% | -10.4% | CN(CC(=O)OCC(=O)NCc1ccccc1)S(=O)(=O)c1ccc(Cl)cc1 | -1.9% | -3.2
nt | 1.1% | Cc1ccc(S(=O)(=O)N2CCOCC2)cc1C(=O)N1CCc2ccccc21 | 0.3% | nt
-8.9% | -1.9% | Cc1cc(C)nc(NC(=S)Nc2ccccc2)n1 | -0.5% | -1.9
-31.0% | -3.0% | S=C(Nc1cccnc1)NC1CCCCCCC1 | -1.7% | 5.4
nt | -3.7% | CC(C)Oc1ccc(S(=O)(=O)N2CCCCC2)cc1NC(=O)C1=COCCO1 | 0.2% | nt
19.1% | -0.5% | COc1ccc(OC)c(S(=O)(=O)N2CCN(CC(O)COc3ccc(C#N)cc3)CC2)c1 (stereo not given) | -4.6% | nt
nt | 0.0% | COc1ccc(NC(=O)CNc2ccccc2N2CCCC2=O)cc1S(=O)(=O)N1CCOCC1 | -0.5% | nt
-0.9% | -7.0% | Cc1ccc(C(=O)C[n+]2cc(Br)cc(Br)c2)cc1 | -0.8% | ?
-87.2% | nt | Cc1ccc(NC(=O)Nc2ccc3c(c2)nc(C)n3C)cc1C | nt | 3.8
17.3% | 17.5% | Cc1c(Cc2ccccc2)sc(NC(=O)/C=C/c2cccc3ccccc23)c1C(N)=O | -1.0% | 4.1
-11.1% | -4.1% | COC(=O)COc1ccc(S(=O)(=O)NCCC2=CCCCC2)cc1 | -0.8% | 5.1
25.0% | 4.7% | O=C(Nc1ccc(S(=O)(=O)N2CCCC2)cc1)c1ccc(CN2CCOCC2)cc1 | -0.9% | 4.8
2.1% | -6.5% | Cn1c(=O)c2c(SCCN3CCOCC3)nc(C3CCCC3)nc2n(C)c1=O | 0.0% | 3.4
0.7% | nt | CCOC(=O)c1cc2c(ccn2C)n1CC(=O)N1CCN(c2ccccc2OC)CC1 | nt | 2.2
-0.6% | 27.4% | COc1cc2c(C(=O)N(C)c3ccc(F)cc3)cn(C)c(=O)c2cc1OC | -0.3% | nt
-0.1% | 12.5% | CN(C(=O)COC(=O)c1ccc[nH]c1=O)C1CCCCC1 | -1.3% | -22.9
-4.6% | -5.0% | COc1cccc(C2CC(c3ccccc3OC)n3ncnc3N2)c1 (stereo not given) | -1.7% | -0.3
-1.0% | 4.5% | O=C(CN1CCN(c2ccc(O)cc2)CC1)N1CCc2ccccc21 | -0.2% | nt
1.9% | -17.4% | CCCCNC(=O)CSc1nnc(Cc2ccccc2)n1CC | -0.8% | 4.3
-4.7% | 23.5% | CC(C)NC(=S)NCc1cccnc1 | 5.5% | 1.2
-1.6% | nt | CCCn1cnc2c(c1=O)c1nc3ccccc3nc1n2Cc1ccccc1OC | nt | -3.0
-3.1% | ? | CC1(C)C(=O)C2(CCCC2)C(=O)OC1c1ccco1 (stereo not given) | -1.3% | -2.4
-8.0% | 6.1% | CCOC(=O)N1CCC(NC(=O)CCc2cn(C)c3ccccc23)CC1 | 2.1% | 1.4
-13.0% | -7.9% | CCOn1c(=O)c(-c2cc(OC)ccc2OC)[n+]([O-])c2ccccc21 | -3.3% | nt
-8.1% | -2.6% | O=C(c1ccc(-n2cccc2)cc1)N1CCN(Cc2ccccc2)CC1 | -1.1% | -17.9
-3.6% | 0.5% | CNc1nc(C)c(C(C)(C)C)s1 | 0.0% | -2.9
-0.4% | 6.0% | COc1cccc(OCC(O)CNC2CCCC2)c1 (stereo not given) | 6.7% | nt
-11.6% | nt | COc1ccc(/C=C2\CCCC(C(=O)C(F)(F)F)=C2O)cc1OC | nt | -0.6
-4.1%&-15.5% | -8.9% | O=C(Nc1nnc(S(=O)(=O)N2CCCCC2)s1)c1ccccc1Br | -0.2% | nt
-9.0% | -4.3% | CC(/C=N/NC(=O)c1n[nH]c2c1CCC2)=C\c1ccccc1 | 0.8% | -4.5
-6.6% | 0.0% | Cc1ccc2nc(SCC(=O)Nc3nonc3C)[nH]c2c1 | 1.8% | nt
-2.8% | -6.9% | COc1ccc(NS(=O)(=O)c2cccc(C(=O)N/N=C/c3ccc4c(c3)OCCO4)c2)cc1 | -5.4% | -7.3
-13.6% | 7.9% | Cc1ccc(C(=O)NC(=S)Nc2cccc(NC(=O)c3ccccc3Cl)c2)cc1[N+](=O)[O-] | 0.0% | -1.0
-1.0% | -16.1% | O=C(CCCn1c(=S)[nH]c2cc3c(cc2c1=O)OCO3)N1CCN(C2CCCCC2)CC1 | -0.2% | -7.8
nt | 16.4% | O=C(c1ccc2n[nH]nc2c1)N1CCN(c2ccc(C(F)(F)F)cn2)CC1 | 1.0% | nt
-6.2% | -0.8% | O=C(CC1c2ccccc2Oc2ccccc21)Nc1ccccc1F | -0.9% | -18.4
0.0% | ? | Cc1c(CC(=O)N2CCN(C(=O)C3COc4ccccc4O3)CC2)c(=O)oc2cc(O)cc(O)c12 (stereo not given) | ? | nt

Continuation.
miR-21 FLuc | Rango release inh | SMILES | Rango-impB inh | GLA inh pH 4.5
-1.2% | 9.2% | O=C(Nc1ccc(F)cc1)C1CCCN(S(=O)(=O)c2ccc3[nH]c(=O)ccc3c2)C1 (stereo not given) | ? | nt
5.0% | 1.3% | Cn1c(SCC(=O)Nc2ccccc2F)nc2c(c1=O)SCC2 | 0.8% | nt
-75.2% | -26.9% | O=C(NCCc1ccccc1F)c1cccc2cccnc12 | ? | nt
-5.7% | -20.7% | COc1cccc(C2C(C#N)=C(N)Oc3c2oc(CO)cc3=O)c1 (stereo not given) | -1.3% | -0.5
nt | 7.1% | O=C(CN1CCCSc2ccccc21)N1CCN(S(=O)(=O)c2ccccc2)CC1 | 2.6% | nt
-2.9% | -0.1% | Cc1oc(-c2ccc(Cl)cc2)nc1CS(=O)CC(=O)NCCCN1CCCC(C)C1 (stereo not given) | 0.1% | nt
-4.4% | 9.5% | Fc1ccc(-c2ccc(/C=N\n3cnnc3)o2)cc1Cl | 3.8% | -0.1
-0.3% | 0.8% | COc1ccc(-c2cc(C(=O)N3CCN(c4ccccc4)CC3)c3ccccc3n2)cc1 | -0.4% | -4.5
nt | 13.9% | COC(=O)C1=C(C)N(CCCC(=O)O)C(=O)NC1c1cccc(Cl)c1Cl (stereo not given) | -0.4% | nt
-16.1% | -15.1% | COc1ccc(CCNC(=O)c2cc(-c3ccccc3)on2)cc1OC | -4.9% | -6.2
-3.2% | 4.3% | COCCCNc1nc2nonc2nc1N(C)CC1CCCN1C (stereo not given) | -2.9% | 3.1
1.4% | 2.3% | CCCc1cc(=O)[nH]c(Nc2ccc(N3CCCCC3)cc2)n1 | -2.8% | -1.3
0.2% | -16.8% | CCCCn1nnnc1SCC(=O)N1CCOCC1 | ? | -7.7
0.5% | 4.1% | O=C(Nc1cccc(F)c1)C1CCN(S(=O)(=O)c2cnc[nH]2)CC1 | 1.0% | nt
-37.0% | 6.5% | COc1ccc(-c2nnc(SCc3ccccc3)n2N)cc1 | 0.9% | -4.2
-48.1% | -1.7% | O=C(N/N=C/c1cccc2ccccc12)c1cccs1 | -3.4% | nt
-44.9% | -6.8% | N#Cc1ccsc1NC(=O)COC(=O)c1cc2ccccc2cc1O | -1.6% | -1.2
nt | -1.9% | COc1ccc(NS(=O)(=O)c2cc(NC(=O)c3ccc(S(=O)(=O)N(C)C)cc3)ccc2N2CCOCC2)cc1 | -4.1% | nt

Assay outcomes (PubChem BioAssay)
